Assay outcomes deposited in PubChem BioAssay by National Center for Advancing Translational Sciences (NCATS).
Cruzain inh Det: qHTS Assay for Promiscuous and Specific Inhibitors of Cruzain (with detergent). Cruzipain (Trypanosoma cruzi), P25779. AID 1478, 2009. 0.43% of 200,000 active. Potency, µM, inactives show max response, negative = inhibition, most hits filed as inhibitors. purified cruzain, Z-FR-AMC fluorescence, 0.01% Triton; active means well fitted curve in the direction sought with a large enough effect; inconclusive means small, poorly fitted or top-dose-only effect, or another doubt; inactive means no such curve, though single readings can be large; an effect the other way counts as inactive or inconclusive;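 further: plate controls were neutral wells for no effect and buffer without enzyme for full effect; nearly all actives have a fitted effect of over 40% in size; top concentration of the series not given in the record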
Target sequence (P25779 123-467 limits assumed): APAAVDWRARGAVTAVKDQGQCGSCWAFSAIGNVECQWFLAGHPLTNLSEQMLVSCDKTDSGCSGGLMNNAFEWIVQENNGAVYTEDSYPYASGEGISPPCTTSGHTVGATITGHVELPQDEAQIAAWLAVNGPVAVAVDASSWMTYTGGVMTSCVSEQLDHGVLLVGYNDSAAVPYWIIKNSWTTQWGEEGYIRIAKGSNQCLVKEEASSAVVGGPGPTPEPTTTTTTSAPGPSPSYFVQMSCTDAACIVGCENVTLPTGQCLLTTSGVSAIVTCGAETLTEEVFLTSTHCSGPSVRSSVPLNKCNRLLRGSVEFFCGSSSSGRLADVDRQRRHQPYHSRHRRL
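Compounds were screened in titration against cruzain (1.5 nM) with 0.01% Triton X-100 to counter colloidal aggregation. Activity was the AMC fluorescence increase over 60 s after adding 2 uM Z-FR-AMC at pH 5.5.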
Marburg entry inh: qHTS for inhibitors of binding or entry into cells for Marburg Virus; Marburg virus pseudotyped entry inhibition, cell reporter; control for the full effect not named in the record; about a third of the inactives were read at about 46 µM; Potency, µM (highest dose often 37.8 µM), without a hit: at the top dose activity change, negative = inhibition, hits mostly inhibitors; 1.8% of 300,000 active; AID 540276, 2011; active = well fitted inhibition curve with a large enough effect; inconclusive = small, poorly fitted or top-dose-only effect, or effect the other way; inactive = flat fitted curve, though single readings scatter; tested in HEK293 cells; about a fifth of its hits are not listed in these tables; further: on the % scale 0 is the no-effect control and ±100 the full control effect; luciferase read-out
RE007 growth inh: qHTS Assay for Inhibitors of the HIV-1 protein Vpr; S. pombe RE007 Vpr strain, BacTiter-Glo ATP luminescence, 24 h; control for the full effect not named in the record; Potency, µM (doses to about 92.2 µM), for the others: at the top dose activity change, negative = less growth; 0.21% of 360,000 active; active = well fitted falling curve with a large enough effect; inconclusive = small, poorly fitted or top-dose-only effect; inactive = no such curve, though single readings can be large or run the other way;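 further: on the % scale 0 is the no-effect control and ±100 the full control effect; nearly all actives have a fitted effect of over 50% in size; the assay follows cell death caused by Vpr and the record does not say whether a fall means rescue or toxicity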
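Fission yeast RE007 carrying one integrated HIV-1 vpr copy, seeded at OD 0.01 in PMG+AL medium with 23 nL pinned compound. Grown 24 h at 30 degrees; viability read by BacTiter-Glo luminescence after 5 min.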
NS1 inh: qHTS Assay for Inhibitors of Influenza NS1 Protein Function | S. cerevisiae slowed by influenza A NS1, growth recovery by OD600 | Potency, µM (top dose mostly 46.1 µM), for the others: at the top dose activity, positive = more growth | AID 2326, 2010 | 0.4% of 270,000 active; further: actives are rising curves; nearly all actives have a fitted effect of over 50% in size
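Read-out: OD600 growth recovery of NS1-expressing budding yeast. Cells grown overnight at 30C in -URA glucose medium, washed, resuspended and diluted 1:100 in 2% galactose assay medium, pH 6.0. Same strain lacking NS1 served as positive control.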
Lassa entry inh: qHTS for Inhibitors of binding or entry into cells for Lassa Virus; Lassa virus pseudotype entry inhibition, cell reporter; control for the full effect not named in the record; Potency, µM (top dose mostly 37.9 µM), inactives show at the top dose activity change, negative = inhibition, usual class: inhibitors; 1.2% of 300,000 active; active means well fitted inhibition curve with a large enough effect; inconclusive means small, poorly fitted or top-dose-only effect, or effect the other way; inactive means flat fitted curve, though single readings scatter; tested in HEK293 cells; further: on the % scale 0 is the no-effect control and ±100 the full control effect; nearly all actives have a fitted effect of over 50% in size; luciferase read-out
SARS PLpro yeast: qHTS of Yeast-based Assay for SARS-CoV PLP | S. cerevisiae expressing SARS-CoV PLpro, growth rescue; control for the full effect not named in the record | Potency, µM (highest dose often 32.9 µM), inactives show top-dose activity, positive = growth rescue | 0.19% of 330,000 active | AID 485353, 2010; further: 0% is about no effect; nearly all actives have a fitted effect of over 55% in size; growth read by luminescence after 48 h
Cruzain noTriton: qHTS Assay for Promiscuous and Specific Inhibitors of Cruzain (without detergent); Cruzipain (Trypanosoma cruzi), P25779; purified cruzain, Z-FR-AMC fluorescence, no detergent; Potency, µM, inactives show max response, negative = inhibition, most hits filed as inhibitors; 2.3% of 200,000 active; AID 1476, 2009; active means well fitted curve in the direction sought with a large enough effect; inconclusive means small, poorly fitted or top-dose-only effect, or another doubt; inactive means no such curve, though single readings can be large; an effect the other way counts as inactive or inconclusive;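 further: plate controls were enzyme without inhibitor for no effect and buffer without enzyme for full effect; nearly all actives have a fitted effect of over 40% in size; top concentration of the series not given in the record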
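Purified cruzain at 1.5 nM, pre-incubated 15 min with compound at room temperature in 100 mM sodium acetate pH 5.5, 5 mM DTT, 0.00005% Triton X-100. Reaction started with 2 uM Z-FR-AMC; AMC fluorescence increase over 60 s gives rate.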
StopGo reporter: High Throughput Screening for Foot and Mouth Disease Virus Antivirals; human cells with a luciferase reporter of 2A StopGo recoding; control for the full effect not named in the record; Potency, µM (highest dose often 57.9 µM), for the others: at the top dose signal change, negative = less light; 1.2% of 410,000 active; AID 1159524, 2015; active = well fitted falling curve with a large enough effect; inconclusive = small, poorly fitted or top-dose-only effect; inactive = no such curve, though single readings can be large or run the other way; tested in HEK293T cells; further: on the % scale 0 is the no-effect control and ±100 the full control effect; nearly all actives have a fitted effect of over 45% in size; luciferase light after 4 h
An asterisk follows results filed as active; ? = inconclusive; . = no result given; & = joins results of further samples; [ ] = remark or other dose. Unless noted, the call rests on the fitted dose curve; in most records, active means well fitted rising curve with a large enough effect; inconclusive means small, poorly fitted or top-dose-only effect; inactive means no such curve, though single readings can be large or run the other way. Potency means the concentration at half of the fitted maximal effect.

Values run as follows: Cruzain inh Det | Marburg entry inh | RE007 growth inh | NS1 inh | Lassa entry inh | SARS PLpro yeast | Cruzain noTriton | StopGo reporter
> Cc1ccc(S(=O)(=O)Nc2cccc(C(=O)N3CCN(c4ccccc4O)CC3)c2)cc1F
    . | 0%[46.1 µM] | 0% | . | -7% | -2% | . | -2%
> C=CCn1c(=O)c2ccccc2n2c(SCC(=O)N(C)C)nnc12
    . | 16%[46.1 µM] | 3% | 0% | 7%[46.1 µM] | 0% | . | -3%
> O=C(c1ccco1)N1CCN(c2ncnc3sc4c(c23)CCC4)CC1
    -30% | -5% | -13% | -13% | -8% | -4% | -29% | ?
> CCN(C(=O)NCc1noc2ccccc12)c1cc(C)ccc1C
    -0.9% | . | . | . | -14%[46.1 µM] | . | 10% | -13%
> O=C(N/N=C/c1c[nH]c2ccccc12)C1CC(=O)N(c2ccccc2)C1 (stereo not drawn)
    . | . | 8% | 0% | . | 1% | . | -36%
> COc1cc(Cl)c(C)cc1NC(=O)CN1CCCCCC1
    . | -3%[46.1 µM] | 11% | 7% | 0% | 0% | . | -9%
> Cc1ccc(O)c(-c2cc(C(=O)Nc3cccnc3)[nH]n2)c1
    . | ? | 3% | 6% | ? | -2% | . | 0%
> COC(=O)COc1ccc(/C=N/NC(=O)c2ccc(N(Cc3ccccc3)S(C)(=O)=O)cc2)cc1
    -7.2% | ? | -1% | 5% | 3% | -9% | -5% | ?
> CCOC(=O)c1c(S(=O)(=O)NCC(=O)Nc2ccc(Cl)c(C(F)(F)F)c2)c(C)n(C)c1C
    -11% | . | . | . | 15%[46.1 µM] | . | ? | 0%
> Cc1ccc(-c2[nH]ncc2CNCCc2cnn(-c3ccccc3)c2)cc1C
    . | 8.9µM* | ? | 9% | -4% | -2% | . | ?
> COc1ccc(C(=O)NCC(c2ccco2)S(=O)(=O)c2cccs2)cc1OC (stereo not drawn)
    -5.8% | . | . | . | -7%[46.1 µM] | . | 12% | -16%
> Cc1cccc(N(CC(=O)N=Nc2c(O)[nH]c3ccccc23)S(C)(=O)=O)c1C
    -14% | -13% | -4% | -6% | 5% | -2% | 0% | -15%
> COc1ccc2c(=O)c3c(=O)n(Cc4ccco4)c(C(C)C)nc3oc2c1
    ? | -4%&-4% | 1% | -4% | 3% | -22% | 32µM* | -19%
> Cc1cccc(-n2nnnc2SCn2nnc3ccccc3c2=O)c1
    -0.6% | 3%&3% | -5% | ? | 2% | -5% | -14% | 13%
> CC(=O)N1CCCc2cc(S(=O)(=O)N3CCCC(C(=O)N4CCN(c5ccccc5)CC4)C3)ccc21 (stereo not drawn)
    -1.9% | . | 7% | ? | -20%[46.1 µM] | 11% | ? | 18µM*

Continued.
Values run as follows: Cruzain inh Det | Marburg entry inh | RE007 growth inh | NS1 inh | Lassa entry inh | SARS PLpro yeast | Cruzain noTriton | StopGo reporter
> CCC/C(C)=N\Nc1nc2c(c(=O)n(C)c(=O)n2C)n1C
    . | . | -5% | -3% | . | -1% | . | -9%
> O=C(Nc1ccccc1C(=O)N1CCCCCC1)c1ccccc1Cl
    . | 10%[46.1 µM] | -1% | 9% | 3% | -2% | . | -9%
> O=C(O)CCCCCNS(=O)(=O)c1c(Cl)cccc1Cl
    4.8% | 11% | -6% | 3% | -14% | -2% | -2% | 29%
> COCCCN1C(=O)c2ccc(C(=O)Nc3ccc(OC)cc3)cc2C1=O
    3.6% | 2% | 25% | 9% | ? | 4% | -7% | 28%
> Cc1sc2ncnc(N3CCN(C(=O)c4ccco4)CC3)c2c1C
    . | ? | -2% | -14% | ? | -1% | . | -21%
> COc1ccc(C(C)=O)cc1COC(=O)Cc1cc(OC)c(OC)c(OC)c1
    . | -3%[46.1 µM] | 6% | -5% | -5%[46.1 µM] | -6% | . | -3%
> CCOc1ccc2c(c1)c(=O)c(C(=O)c1ccc(C)cc1)cn2Cc1ccccc1OC
    -0.9% | ? | . | . | -12%[46.1 µM] | . | 5% | -25%
> COc1ccc(OC)c(-c2csc(NC(=O)CN3C(=O)C4CCCCC4C3=O)n2)c1 (stereo not drawn)
    . | ? | 15% | . | -2%[46.1 µM] | 4% | . | -25%
> O=C(NC1CC1)C1CCN(c2ncnc3c2sc2cccc(F)c23)CC1
    -15% | . | -9% | -6% | . | 5% | 1% | ?
> Cc1[nH]c(=O)[nH]c(=O)c1S(=O)(=O)Nc1cccc(Cl)c1C
    -3.4% | 6%[46.1 µM] | . | . | 24%[46.1 µM] | . | 6% | -13%
> Oc1cccc(/C=N/Nc2cccc3cccnc23)c1
    . | ? | -10% | 1% | ? | 2% | . | -48%
> CC(=O)n1c2ccccc2c2nc(NC(C)C)sc21
    -0.5% | 0%[46.1 µM] | ? | -171% | 14% | -29% | 1% | 31%[activator]
> CC(=O)Nc1ccc(NC(=O)COC(=O)/C(=C/c2ccccc2)n2nnnc2C)cc1
    . | ? | 8% | 3% | ? | ? | . | 20µM*
> CCCc1ccc(C(=O)CCC(=O)O)cc1
    2.6% | 4% | -4% | ? | ? | -11% | -10% | 65%[activator]
> CC1CN(C(=O)c2ccn(C)n2)CC(C)O1 (stereo not drawn)
    -1.3% | 18% | 10% | 18% | -4% | -4% | 5% | -6%

Additional structures follow.
Values run as follows: Cruzain inh Det | Marburg entry inh | RE007 growth inh | NS1 inh | Lassa entry inh | SARS PLpro yeast | Cruzain noTriton | StopGo reporter
> CC(C)COc1ccc(C(=O)N2CCN(CCc3ccccn3)CC2)cc1
    -1.0% | 14%[46.1 µM] | . | . | -1%[46.1 µM] | . | 4% | -11%
> O=C(CSCc1ccccc1Cl)Nc1ccc2c(c1)OCCO2
    -2.0% | 18% | 16% | -41% | ? | 4% | -8% | 20%
> CCc1ccc(OC(=O)CSc2nnc(-c3ccc4c(c3)OCO4)o2)cc1
    -3.3% | 0%[46.1 µM] | . | . | 15%[46.1 µM] | . | 8% | -23%
> CC1=Nc2cc(C(=O)NCCCN3CCOCC3)ccc2Sc2c(C)ccc(C)c21
    . | ? | -8% | 0% | ? | -15% | . | -9%
> CCCCN1CC(c2nc3ccccc3n2CCCCOc2c(C)cccc2C)CC1=O (stereo not drawn)
    -4.4% | 0%[46.1 µM] | . | . | 14%[46.1 µM] | . | 6% | ?
> COc1c(Br)cc(C(N)=O)cc1OCc1ccccc1
    -6.1% | -1% | -1% | -33% | -13% | -11% | ? | 55%[activator]
> COC(=O)c1cc(NC(=O)CCS(=O)(=O)c2cc(Br)cc3c2N(C(=O)C2CC2)CC3)cc(C(=O)OC)c1
    -0.8% | -23%[46.1 µM] | . | . | -3%[46.1 µM] | . | 16% | -4%
> COc1ccc(S(=O)(=O)NCCN2CCOCC2)cc1[N+](=O)[O-]
    . | -1%[46.1 µM] | -11% | -15% | 13%[46.1 µM] | 0% | . | -7%
> CC(=O)Nc1ccc(S(=O)(=O)Nc2nc3ccccc3nc2-n2ccc(=NC(=O)c3ccccc3)cc2)cc1
    . | 27% | 5% | -3% | 28% | 1% | . | -14%
> CC(=O)NS(=O)(=O)c1ccc(NS(=O)(=O)c2ccc(F)cc2)cc1
    -1.2% | -1% | 13% | 0% | 6% | 13% | 11% | 12%
> COc1cccc(NC(=O)CSc2nnc(NC(=O)c3ccco3)s2)c1
    . | 15% | 14% | -11% | -13% | 0% | . | 16%
> Cc1nn(-c2ccccc2Cl)c(Cl)c1/C=N/Nc1cccc(C(=O)O)c1
    -14% | ? | 5% | 9% | ? | -5% | -12% | 7.1µM*
> Cc1cc(C)c2c(N)c3cccc(C)c3nc2n1
    -11% | 3.7µM* | 7% | -10% | ? | ? | -10% | -12%
> Cc1nc2c(C(=O)NCCc3ccccc3)c[nH]n2c(=O)c1Cl
    -12% | 18% | 1% | -12% | 18% | 0% | ? | 13%
> Cc1cccc2nc3c(nc12)CCCC3
    . | . | 5% | 2% | . | 1% | . | 11%

Carrying on.
Values run as follows: Cruzain inh Det | Marburg entry inh | RE007 growth inh | NS1 inh | Lassa entry inh | SARS PLpro yeast | Cruzain noTriton | StopGo reporter
> N/C(=N/O)C(c1ccccc1)c1ccccc1
    -0.4% | ? | 18% | 2% | 15% | 8% | -12% | 30%
> Cc1ccc(CNC(=O)CN(C(=O)C2(C)CC(=O)N=C3C=CC=CN32)c2ccccc2)cc1 (stereo not drawn)
    . | -10%[46.1 µM] | -21% | 2% | ? | 0% | . | -3%
> Cc1nc2nc(NC(=O)c3ccc(C(C)(C)C)cc3)[nH]n2c(=O)c1Cc1ccccc1
    -0.3% | 3%[46.1 µM] | . | . | 19%[46.1 µM] | . | ? | -11%
> COc1ccc(NC(=O)C(c2ccc(OC)cc2)N(C)C(=O)CNC(C)=O)cc1 (stereo not drawn)
    4.4% | -16%[46.1 µM] | 5% | -2% | ? | 3% | -2% | 0%
> O=S(=O)(NCc1csc(-c2ccccc2)n1)c1ccc(Cl)s1
    -13% | . | -6% | -156% | . | -56% | -8% | -2%
> O=C(NCc1ccccc1Cl)c1ccc(CS(=O)(=O)c2ccccc2)o1
    . | 7%[46.1 µM] | -15% | 13% | ? | 2% | . | 0%
> CCOC(=O)N1CCN(C(=O)CN(c2ccc(C)cc2)S(=O)(=O)c2c(C)noc2C)CC1
    8.3% | -6% | 24% | -18% | -7% | -7% | ? | -19%

Compound profiles, as listed above. Order of screens: Cruzain inh Det, Marburg entry inh, RE007 growth inh, NS1 inh, Lassa entry inh, SARS PLpro yeast, Cruzain noTriton, StopGo reporter
Record of COc1ccc(NC(=O)C(c2ccc(OC)cc2)N(C)C(=O)CNC(C)=O)cc1 (stereo not drawn) : 4.4%, -16%[46.1 µM], 5%, -2%, ?, 3%, -2%, 0%
Record of O=S(=O)(NCc1csc(-c2ccccc2)n1)c1ccc(Cl)s1 : -13%, ., -6%, -156%, ., -56%, -8%, -2%

Rows were taken by chance. About 4.6% of those tested had a hit in this group.
